Compound activity from PubChem BioAssay.
VACV Venus inh – inhibitors of vaccinia virus (Venus reporter) | Vaccinia virus Venus reporter expression, fluorescence | Potency, µM (titrated, usually from 36.5 µM), without a hit: top-dose activity change, negative = inhibition, usual class: inhibitors | 330,000 tested, 0.46% active | AID 720580; active means well fitted inhibition curve with a large enough effect; inconclusive means small, poorly fitted or top-dose-only effect; inactive means no such curve, though single readings can be large or run the other way; tested in A549 cells; further: nearly all actives have a fitted effect of over 30% in size; inactives centre near -10
Vaccinia mCherry – vaccinia inhibition (mCherry reporter). 310,000 tested, 0.63% active. Potency, µM (top dose mostly 36.5 µM), for inactives: at the top dose activity change, negative = inhibition, usual class: inhibitors. Vaccinia virus mCherry reporter infection, fluorescence; about a quarter of the inactives have no number; active = well fitted inhibition curve with a large enough effect; inconclusive = small, poorly fitted or top-dose-only effect; inactive = no such curve, though single readings can be large or run the other way; tested in A549 cells; further: nearly all actives have a fitted effect of over 35% in size; inactives centre near -10
* = called active by the depositor; i = inactive; ? = inconclusive; / = not tested or not shown; [ ] = another dose, or the depositor's remark. On the % scale 0 is the no-effect control and ±100 the full control effect; potency means the concentration at half of the fitted maximal effect.

Values in the order – VACV Venus inh | Vaccinia mCherry
CSCCC(NC(=O)COc1ccccc1)C(=O)N(C)Cc1c(F)cccc1Cl (stereo not drawn)
→ -13% | i
CN(CC1CCOCC1)C(=O)CC1C(=O)NCCN1Cc1ccccc1F (stereo not drawn)
→ -7% | -11%
O=[N+]([O-])c1cc(-c2nc(-c3cccnc3)no2)ccc1NCc1ccccc1
→ -7% | -8%
CCOc1ccc(NC(=O)CN2CCSc3ccc(S(=O)(=O)N4CCCC4)cc32)cc1
→ -9% | -14%
Cc1ccc(CSCCNC(=O)CSc2ccccc2)cc1
→ -8% | -11%
Cc1nn(CC(=O)Nc2c(C)n(C)n(-c3ccccc3)c2=O)c(C)c1[N+](=O)[O-]
→ -9% | -1%
CCOc1ccc2nc(NC3=NC(c4ccc(OC)cc4)CC(=O)N3)nc(C)c2c1 (stereo not drawn)
→ -19% | -21%
CC(C)(C)c1ccc(S(=O)(=O)NC(=O)C2(C)CCN2C(=O)Cc2ccc(-c3ccccc3)cc2)cc1 (stereo not drawn)
→ -20% | -10%
Cc1ccc(-c2nc(C)c(CCNC(=O)C(=O)Nc3ccc4c(c3)OCCO4)s2)cc1
→ 6% | -10%
CCn1cc(C2=NC(c3ccccc3)CO2)c2ccccc21 (stereo not drawn)
→ -12% | 5%
O=C(NCCCSc1ccccc1)c1cccnc1
→ -8% | -13%
COc1ccc(CN(C)CC(O)COc2ccc(-c3ccccc3)cc2)cc1OC (stereo not drawn)
→ -26% | i
Cc1ccc2nc(/C=C/c3ccc(N(C)C)cc3)ccc2c1
→ 11% | -1%
Cc1ccc(CCNC(=O)C2CCN(S(=O)(=O)N3CCCC3)CC2)cc1
→ -5% | i
Cc1ccc(C)c(N2CCN(C(=O)CCc3nc(-c4cccc(C(F)(F)F)c4)no3)CC2)c1
→ ? | ?
Cc1cccc(N2CCN(S(=O)(=O)c3c(C)[nH]c(C)c3C(=O)N3CCCCC3)CC2)c1C
→ -20% | -25%
CC(C)CN(C(=O)c1ccc(-n2cncn2)c([N+](=O)[O-])c1)C1CCS(=O)(=O)C1 (stereo not drawn)
→ -8% | -14%
Cc1ccc(-c2nn3cnnc3c3ccccc23)cc1
→ -20% | -10%
Cc1ccc(C(=O)OCC(=O)N(CC(C)C)c2c(N)n(Cc3ccccc3)c(=O)[nH]c2=O)cc1[N+](=O)[O-]
→ -7% | -7%
S=C(Nc1ccccc1)N1CCN(C2CCCCC2)CC1
→ -8% | i

2 compounds drawn at random from the list so far:
Values in the order – VACV Venus inh | Vaccinia mCherry
Cc1ccc(CCNC(=O)C2CCN(S(=O)(=O)N3CCCC3)CC2)cc1
→ -5% | i
Cc1ccc(CSCCNC(=O)CSc2ccccc2)cc1
→ -8% | -11%

Continued.
Values in the order – VACV Venus inh | Vaccinia mCherry
CCOc1ccc(CNS(=O)(=O)c2ccc3c(c2)CCCN3C(C)=O)cc1
→ -13% | -5%
O=C(Nc1ccc(N2CCN(C(=O)c3cccs3)CC2)cc1)c1ccc(F)cc1
→ -9% | ?
Cc1cccc(NC(=O)c2cc(S(=O)(=O)N3CCCCC3)ccc2Cl)n1
→ -9% | i
CCCCn1c(CNC(=O)Cc2ccccc2)nc2ccccc21
→ -7% | -6%
Cc1ccccc1-c1nc2ccccc2[nH]1
→ -6% | /
CC(=O)N=c1sc2cc(C)ccc2n1C
→ 33%[activator] | 30%[activator]
Clc1ccc(OC2CCN(Cc3nc(CC4CC4)no3)CC2)cc1
→ -14% | -19%
CCOC(=O)C1(CCCc2ccccc2)CCN(C(=O)C2CCCN(C(N)=O)C2)CC1 (stereo not drawn)
→ -6% | i
Cc1ccc(CC(=O)OCC(=O)NC2CCCC(C)C2C)cc1C (stereo not drawn)
→ -3% | -2%
Cc1nccc(-c2ccc(-n3cnc4ccccc43)cc2)n1
→ -12% | i
C=CCNC(=O)c1c(CSc2ccc(Cl)cc2)noc1C(=O)NCCC
→ -15% | ?
CCC1CCc2sc(C(=O)NC3CCN(Cc4ccccc4)CC3)cc2C1 (stereo not drawn)
→ -28% | -20%
CCCN1CCC(C(=O)NC(c2ccc(Cl)cc2)c2ccsc2)CC1 (stereo not drawn)
→ -22% | -11%
COc1ccc(/C=C/C(=O)Nc2cc(C)nn2-c2nc3ccccc3n2Cc2cccc([N+](=O)[O-])c2)cc1
→ 6% | i
COc1ccc(Nc2cc(C)nc(-n3nc(C)cc3C)n2)cc1Cl
→ -28%[7.34 µM] | ?
O=C(OCCCc1cc2ccccc2c(=O)o1)N1CCOCC1
→ -6% | -10%
Cc1cc(C)cc(-c2nnc(SCc3ccc(C(=O)O)cc3)o2)c1
→ -13% | i
Cc1ccccc1Oc1ccccc1N
→ -9% | -10%
COC(=O)c1cscc1NC(C)=O
→ -17% | /
CCC(=O)n1nc(-c2ccc(Cl)cc2)nc1SC
→ -15% | -28%
COc1ccc(C)cc1NC(=O)CSc1nnnn1C1CCCC1
→ -18% | -16%
CN(C)S(=O)(=O)c1cccc(COC(=O)c2cnccn2)c1
→ -9% | i
COCC1CCCN(Cc2ccc3c(c2)CN(C(=O)c2ccc(OC)nc2OC)CCO3)C1 (stereo not drawn)
→ 6% | -7%
CCCN1Cc2cccc(C(=O)NCc3cccs3)c2C1=O
→ 1% | -2%
Cc1nnc(NC(=O)C2CCCN2C(=O)Nc2ccccc2)s1 (stereo not drawn)
→ -8% | -17%
CN(C)CCCN(C(=O)COc1ccc(Cl)cc1)c1nc2c(F)cccc2s1
→ -8% | -11%
COC(=O)c1ccc(OC)c(Cn2c(=O)n(-c3ccc(C)cc3)c(=O)c3c2cnn3C)c1
→ -18% | -18%
Cc1c(C(=O)NCc2cccc(Cl)c2)sc2nc3n(c(=O)c12)CCCC3
→ -5% | 10%
COc1cccc(CNc2nc3cc(-c4ccc(OC)c(OC)c4)sc3c(=O)n2C)c1
→ -30% | -8%
CC(C)NC(=O)N(C)C[C@H]1Oc2c(NS(=O)(=O)c3ccc(F)cc3)cccc2C(=O)N([C@H](C)CO)C[C@@H]1C
→ -2% | i
CC1(C)CC(NC(=S)Nc2ccc([N+](=O)[O-])cc2)CC(C)(C)N1
→ -8% | i
O=C(Cn1c(=O)n(Cc2ccco2)c(=O)c2c3c(sc21)CCCCC3)c1ccccc1
→ -15% | -4%
COc1ccc(S(=O)(=O)N2CCCCC2)cc1-n1cnnn1
→ 1% | 6%
O=C(CCS(=O)(=O)c1cc2c(cc1Cl)NC(=O)CO2)NCc1ccc(F)cc1
→ -2% | -13%
CCOC(=O)C1CCN(C(=O)c2cc3c(ccc4ccccc43)o2)CC1
→ -2% | 5%
CCC(C)NC(=O)/C=C/c1ccc(S(=O)(=O)NCc2ccco2)cc1 (stereo not drawn)
→ -7% | -1%
COc1ccc([C@H]2C[C@@H](n3cc(-c4ccc(F)cc4)nn3)[C@H](O)CN2Cc2cccs2)cc1
→ -13% | 6%
CCNC(=O)NC(=O)C(C)OC(=O)c1c(C)nn(Cc2ccccc2Cl)c1Cl (stereo not drawn)
→ -17% | -15%
O=c1[nH]c2ccccc2cc1CN(Cc1ccco1)S(=O)(=O)c1ccc(F)cc1
→ -17% | -15%
O=C(Nc1ccc2oc(-c3ccncc3)nc2c1)c1ccc2c(c1)OCCO2
→ -12% | -1%

Brought forward from above: five compounds, then new ones.
Values in the order – VACV Venus inh | Vaccinia mCherry
CCC(C)NC(=O)/C=C/c1ccc(S(=O)(=O)NCc2ccco2)cc1 (stereo not drawn)
→ -7% | -1%
COc1ccc([C@H]2C[C@@H](n3cc(-c4ccc(F)cc4)nn3)[C@H](O)CN2Cc2cccs2)cc1
→ -13% | 6%
CCNC(=O)NC(=O)C(C)OC(=O)c1c(C)nn(Cc2ccccc2Cl)c1Cl (stereo not drawn)
→ -17% | -15%
O=c1[nH]c2ccccc2cc1CN(Cc1ccco1)S(=O)(=O)c1ccc(F)cc1
→ -17% | -15%
O=C(Nc1ccc2oc(-c3ccncc3)nc2c1)c1ccc2c(c1)OCCO2
→ -12% | -1%
Cc1ccc(-c2nc(CSc3nncn4c3cc3occc34)c(C)o2)cc1
→ 2% | -15%
CCN(CC)C(=O)Cn1cc([N+](=O)[O-])cc1[N+](=O)[O-]
→ -5% | i
Cc1ccnc(NC(=O)CNC(=O)C23CC4CC(CC(C4)C2)C3)c1
→ -2% | -8%
Cc1ccc(OCC(=O)Nc2ccccc2[N+](=O)[O-])c(Br)c1
→ 7% | -4%
CCCc1cc(=O)[nH]c(SCc2ccc(F)cc2)n1
→ -8% | i
Cc1ccc(C(=O)c2sc(Nc3ccccc3)c(S(=O)(=O)c3ccccc3)c2N)c(C)c1
→ -20% | ?
O=C(CSc1nnc(C2CC2)n1-c1ccccc1)N1CCCC1
→ 1% | -1%
COc1ccc(C(=O)N2CC3(C)CC2CC(C)(C)C3)cc1OC (stereo not drawn)
→ ? | /
O=C(COC(=O)c1ccccc1O)NCCC1=CCCCC1
→ -9% | -5%
CN(/N=C/c1ccc(Br)o1)C1=NS(=O)(=O)c2ccccc21
→ -16% | -18%
O=C(Nc1ccc(C(=O)N2CCOCC2)cc1)Nc1cccc2ccccc12
→ -9% | i
COc1cc(CCC(=O)NCCc2ccc(F)cc2)cc(OC)c1OC
→ -12% | -14%
COc1ccc(OCc2ccc(-c3nc(C#N)c(N4CCC(C)CC4)o3)o2)cc1
→ -3% | -2%
O=C(NC1CCN(C(=O)Nc2cccc(F)c2)CC1)c1ccco1
→ -7% | -13%
CCOC(=O)CSC1=C(C#N)C(c2ccc3c(c2)OCO3)CC(=O)N1 (stereo not drawn)
→ ? | -30%
COc1ccccc1NC(=O)CSC1=Nc2ccccc2C2=NC(CC(=O)NCc3ccc4c(c3)OCO4)C(=O)N12 (stereo not drawn)
→ -4% | -4%
COc1ccc2c(c1)C(=NNC(=O)c1ccccn1)c1cc(OC)ccc1-2
→ -7% | -2%
COc1cccc(-c2nc3ccccc3c(=O)n2NC(=O)c2cccnc2Cl)c1
→ -11% | i
CC1=C(C(N)=O)C(c2cccc(O)c2)n2nc(CCCO)nc2N1 (stereo not drawn)
→ 3% | -5%
CCn1c(SCC(=O)c2ccccc2)nnc1-c1ccoc1C
→ -5% | -14%
O=C(CCCCCn1nnc2ccccc2c1=O)N[C@H](C(=O)O)c1ccccc1
→ 4% | -20%
COCCN1CN=C(Nc2nc3ccccc3s2)NC1
→ ? | /
Cc1ccc(NC(=O)CCC(=O)Nc2nnc(C3CCCCC3)s2)cc1
→ -13% | i
COc1ccc(CCNc2nc(-c3ccc(OC)c(OC)c3)cc(C(F)(F)F)n2)cc1OC
→ -19% | -27%
CCOc1ccc(N(CC)S(=O)(=O)c2cc(Br)cc3c2N(C(C)=O)C(C)C3)cc1 (stereo not drawn)
→ -22% | ?
COc1ccc(C(CC(=O)NCC(OC)OC)NS(=O)(=O)c2ccc(Cl)cc2)cc1 (stereo not drawn)
→ -6% | -11%
COc1ccc(NC(=O)COc2ccc(N(C)S(=O)(=O)c3ccc(C)cc3)cc2)cc1
→ -16% | -16%
Cc1ccc(Cn2c(SCc3ccc(C(=O)N4CCCCC4)cc3)nc3ccncc32)cc1
→ ? | -21%
COc1ccccc1NC(=O)COC(=O)C1CC2C=CC1C2 (stereo not drawn)
→ 6% | i
CCN(Cc1ccccc1)C(=O)c1ccc(CS(=O)c2ccccc2C)o1 (stereo not drawn)
→ 5%[7.34 µM] | 9%[7.34 µM]
O=C(c1ccc(C(F)(F)F)cc1)N1CCC(=O)N([C@H](COCc2ccccc2)Cc2ccccc2)CC1
→ -11% | 3%
CC(C)CNc1ncnc2c1ncn2[C@H]1CN(Cc2ccc(Cl)cc2)C[C@@H](CO)O1
→ -17% | ?
CCSc1nnc(NC(=O)c2ccc3nc[nH]c3c2)s1
→ -10% | i
Cn1c(NCc2cccnc2)nc2cc(-c3ccc(F)cc3)sc2c1=O
→ -13% | 17%
NS(=O)(=O)c1ccc(NS(=O)(=O)/C=C/c2ccccc2)cc1
→ -2% | i
CCc1ccc(NC(=O)CSc2nc3nccnc3c(=O)n2CCc2c[nH]c3ccccc23)cc1
→ -19% | -19%
C[C@@H]1CN([C@@H](C)CO)C(=O)CCCn2nncc2CO[C@H]1CN(C)C(=O)c1ccc(N2CCN(C)CC2)cc1
→ -8% | i
COc1ccc(S(=O)(=O)Nc2cccc(C)c2C)c2cccnc12
→ -15% | i
O=C(NCCc1ccccc1)c1ccccc1C(F)(F)F
→ -1% | i
COc1cccc(CC2(CO)CCCN(Cc3sc(N4CCCC4)nc3Cl)C2)c1 (stereo not drawn)
→ -6% | -13%
Cc1cc(OC(=O)c2cccc(Br)c2)c([N+](=O)[O-])c(=O)[nH]1
→ -6% | -18%
CC(C)c1nnc(NC(=O)CSc2ccccc2)s1
→ -11% | /
CCCCCC1CCC(c2n[nH]c(=S)n2C)CC1 (stereo not drawn)
→ -11% | -1%
Cc1ccc(Sc2ncccc2C(=O)O)cc1
→ -8% | -9%
O=C(Oc1ccc(Br)cc1)c1cccnc1
→ -3% | i
Cc1nn(Cc2noc(C(=O)NCc3cccc(F)c3)n2)c(C)c1Br
→ -5% | -5%
CC(=O)c1cccc(NC(=O)CN(C2CCCCC2)S(C)(=O)=O)c1
→ 2% | -10%
Cc1cc(C)nc(SCc2nnc(SCC(=O)Nc3ccc(Cl)c(C(F)(F)F)c3)o2)n1
→ -9% | -12%
O=S1OCC2C(CO1)C1(Cl)C(Cl)=C(Cl)C2(Cl)C1(Cl)Cl (stereo not drawn)
→ 13% | 7%
